Assay outcomes from PubChem.
Measles inh = inhibitors of measles virus growth in cells, primary screen, measles RdRp inhibitor project, cell-based, single point, HTS; z-score (concentration not given with the values); 33,000 compounds, 0.1% hits; infected Vero cells, GFP fluorescence, 64 h; stronger effect = lower value; AID 745, 2007;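 active means z-score under -3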;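 further: score is relative to mean and SD of the compound wells of a plate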
Numbers without * were called inactive.

Measles inh,SMILES
0.88,Cc1ccc(S(=O)(=O)N(C)CCCC(=O)N2CCN(c3ccccn3)CC2)cc1
0.39,CC1=C(C(=O)Nc2cccc(C)n2)C(c2ccccc2Cl)C2=C(CC(C)(C)CC2=O)N1 (centres undefined)
0.1,O=C1CC(c2ccc(F)cc2)Sc2nc(C34CC5CC(CC(C5)C3)C4)nn21 (centres undefined)
-0.67,C=CCOC(=O)C1=C(C)NC(=O)NC1c1cn(-c2ccccc2)nc1-c1ccc(C)cc1 (centres undefined)
0.37,Fc1ccc(C2Nc3cccc4cccc(c34)N2)cc1
-1.2,O=C(c1ccco1)N(Cc1cccs1)C1CCS(=O)(=O)C1 (centres undefined)
-0.81,COc1ccc(C2(C)CC(C)(C)N(C(=O)c3ccc([N+](=O)[O-])cc3)c3ccccc32)cc1 (centres undefined)
0.69,Cc1ccc(Nc2cc(C)nc3cc(Cl)ccc23)cc1
-0.16,O=C(Cn1cnc2ccccc2c1=O)c1ccccc1
0.02,O=C1C2C(c3ccccc3)C=CC(c3ccccc3)C2C(=O)N1C1CCCCC1 (centres undefined)
-1.2,Cc1cc([N+](=O)[O-])c(N2CCCC2)cc1N
-0.32,Cc1c(NC(=O)c2cc(-c3ccccc3)nc3ccccc23)cccc1[N+](=O)[O-]
-0.05,c1ccc(CSc2nc3ccccc3n2Cc2ccccn2)cc1
-0.61,CN1C(=O)C(O)(C2CC(C(C)(C)C)CCC2=O)c2ccccc21 (centres undefined)
0.21,Cc1cccc(N2C(=O)CN(Cc3sccc3C)C2=S)c1
0,Cc1ccccc1OCC(=O)Nc1ccc2nn(-c3ccc(F)cc3)nc2c1
-0.09,CCc1ccccc1NC(=O)c1ccc(F)c(S(=O)(=O)NCc2ccc(F)cc2)c1
0.01,O=C(Nc1ccc(C(=O)N2CC(=O)N(CCc3ccccc3)C(=O)C2)cc1)C1CCCO1 (centres undefined)
-0.74,COc1ccc(CNS(=O)(=O)c2ccc(F)c(C(=O)Nc3cccc(C)c3C)c2)cc1
1.7,CCC(=O)N1CCc2cc(S(=O)(=O)CCC(=O)NC3CCCCC3)ccc21
-0.83,Cc1ccc(S(=O)(=O)N(CCc2ccccc2)CC(=O)Nc2ccc3c(c2)OCO3)cc1
-0.07,CC1=C(C(=O)OCc2ccc3c(c2)OCO3)C(c2ccccc2OCc2ccccc2)NC(=O)N1 (centres undefined)
-0.12,CCCCCCn1c(SCCOC)nc2c1c(=O)[nH]c(=O)n2C
-0.95,Cc1cc(Cl)ccc1-n1c(-c2ccncc2)n[nH]c1=S
0.65,CC1=C(C(=O)Nc2nc3ccc(Br)cc3s2)C(c2ccccc2)C2=C(CC(C)(C)CC2=O)N1 (centres undefined)
0.83,COc1ccc(OCC(=O)Nc2cc(-c3nc4cc(C(C)C)ccc4o3)ccc2Cl)cc1
-0.05,O=C(O)c1ccc(NC(=O)C(F)(F)F)c(NC(=O)C(F)(F)F)c1
-0.41,Cc1ccc(CNC(=O)c2ccc(N3CCCCC3)c(NS(=O)(=O)c3ccc(C)cc3)c2)cc1
-0.85,CCCCCOC(=O)C1=C(C)Nc2ncnn2C1c1ccncc1 (centres undefined)
-0.11,CC(C)CCn1c(SCCc2ccccc2)nc2c1c(=O)n(C)c(=O)n2C
-1.1,COc1ccc(S(=O)(=O)N2CCC(C(=O)O)CC2)cc1OC
-0.37,COc1ccc(C=Nc2cccc(N=Cc3ccc(OC)c(OC)c3)c2)cc1OC
-0.28,CCOC(=O)c1ccc2ncc(C(=O)OCC)c(Nc3ccc(C)c(Br)c3)c2c1
0.43,Cn1ccnc1SCC(=O)Nc1ncc(Br)cc1Br
-0.98,CC1=C(C(=O)OC(C)C)C(c2ccccc2Cl)C2=C(CC(C)(C)CC2=O)N1 (centres undefined)
-0.31,CC1CCCN(c2ncnc3scc(-c4ccccc4)c23)C1 (centres undefined)
-1.3,Cc1c(C(=O)NCc2ccccc2Cl)oc2ccc(S(=O)(=O)N3CCOCC3)cc12
-0.66,Cc1ccc(CNC(=O)CCCn2c(=O)c3sccc3n(CC(N)=O)c2=O)cc1
-0.26,Cc1ccc(-c2csc(NC(=O)c3ccc(S(=O)(=O)N(C)c4ccccc4)cc3)n2)cc1
-0.66,Cc1ccc(-n2c(CCC(=O)O)ccc2-c2ccc(F)cc2)cc1C

5 of the compounds above, bar-delimited:
canonical_smiles | Measles inh
CCCCCCn1c(SCCOC)nc2c1c(=O)[nH]c(=O)n2C | -0.12
Cc1cc(Cl)ccc1-n1c(-c2ccncc2)n[nH]c1=S | -0.95
CC1=C(C(=O)Nc2nc3ccc(Br)cc3s2)C(c2ccccc2)C2=C(CC(C)(C)CC2=O)N1 (centres undefined) | 0.65
COc1ccc(OCC(=O)Nc2cc(-c3nc4cc(C(C)C)ccc4o3)ccc2Cl)cc1 | 0.83
O=C(O)c1ccc(NC(=O)C(F)(F)F)c(NC(=O)C(F)(F)F)c1 | -0.05

Later entries
Measles inh,SMILES
0.63,O=C(O)CCNCc1ccccc1
-0.47,CCN(CC)c1nc(C)nc2sc(C(=O)Nc3ccc(C)cc3Br)c(C)c12
1.6,Cc1ccc(C)c(CN2C(=O)CSc3ccc(C(=O)NCCc4ccccc4)cc32)c1
-0.04,COC(=O)c1c(NC(=O)c2cccc(F)c2)sc2c1CCC(C(C)(C)C)C2 (centres undefined)
-1.1,Cc1ccn2c(-c3csc(Nc4ccc(O)cc4)n3)c(C)nc2c1
1.4,COCCCNC(=O)c1ccc2c(c1)N(Cc1cccc(F)c1)C(=O)c1ccccc1S2
0,O=C(Nc1ccc(F)cc1)c1ccccc1[N+](=O)[O-]
-0.13,CSc1nc2sc3c(c2c(=O)[nH]1)CC(C)(C)OC3
1.3,COc1ccc2c(c1)OCCC2=O
-0.31,CCCCCn1c(N)nc2c1c(=O)[nH]c(=O)n2C
0.33,COc1ccc(OC)c(N2C(=O)C3C4C=CC(C4)C3C2=O)c1 (centres undefined)
-0.98,Cc1ccc(C2=NN(CC(=O)NCCCN3CCOCC3)C(=O)CC2)cc1
0.27,Nc1c(C(=O)Nc2ccc(Oc3ccccc3)cc2)sc2nc3c(cc12)C(=O)CCC3
-0.9,COc1ccc(-c2csc(NC(=O)c3ccc(Br)s3)n2)cc1OC
-0.24,C/C(O)=c1/ccc2cccc3ncnc1c23
0.37,O=c1oc2ccc(Br)cc2cc1-c1nc(-c2ccc(Br)cc2)cs1
-0.08,CCOC(=O)c1c(NC(=O)c2cc([N+](=O)[O-])ccc2N2CCCCCC2)sc2c1CCCC2
1.2,O=C(Oc1ccccc1NC1=NS(=O)(=O)c2ccccc21)c1ccco1
1.4,Cc1ccc(N2C(=O)C3C(C2=O)C2(C(C)C)C=CC3(C)CC2)cc1 (centres undefined)
0.6,O=C(c1noc2c1CCCCC2)N1CCN(C(c2ccccc2)c2ccccc2)CC1
-0.27,CCOC(=O)COc1ccc2cc(-c3nc4ccccc4[nH]3)c(=O)oc2c1
1.6,CC1(C)CC(=O)C2=C(C1)Nc1nc(SCc3ccccc3F)[nH]c(=O)c1C2c1cccs1 (centres undefined)
1.7,CC1=C(C(=O)OCC2CCCCC2)C(c2ccc3c(c2)OCO3)NC(=O)N1 (centres undefined)
-0.88,COC(=O)c1ccc(C(=O)Nc2c(C(N)=O)oc3ccccc23)cc1
-0.4,COc1ccc(OC)c2c(N3CC(C)OC(C)C3)cc(C(F)(F)F)nc12 (centres undefined)
1.2,O=C(c1ccc(NS(=O)(=O)c2cccs2)cc1)N1CCCC1
-0.81,O=C(CC1Sc2ccccc2NC1=O)Nc1cccc2ccccc12 (centres undefined)
-0.17,Cc1ccc(-c2noc(CN3CCN(C(c4ccccc4)c4ccccc4)CC3)n2)cc1
-1.2,CC(=O)Nc1cccc(Oc2ccc3c(c2)C(=O)N(c2ccc(C(=O)Oc4ccccc4)cc2)C3=O)c1
0.6,CCCc1cc(=O)n2[nH]c(-c3ccccc3)c(-c3ccccc3)c2n1
-1.6,CCc1ccccc1NC(=O)c1cc(S(=O)(=O)N2CCCCC2)ccc1F
0.68,CSc1nc2c(c(=O)[nH]c(=O)n2C)n1CC(O)COc1ccc(Cl)cc1 (centres undefined)
0.2,COC(=O)CNC(=O)C1CCN(S(=O)(=O)c2cccc3nsnc23)CC1
-0.07,CC(C)NC(=O)c1ccc2c(=O)n(CC3CCCO3)c(=S)[nH]c2c1 (centres undefined)
-0.38,O=C(CCn1c(=O)[nH]c2ccsc2c1=O)N1CCN(c2ccc(Cl)cc2)CC1
-0.02,O=C(NCCN1CCN(c2ccccc2)CC1)c1ccc2nc3ccc(Cl)cc3c(=O)n2c1
-0.2,COc1ccc(C(=O)Nc2cc(C(=O)Nc3cc(Cl)ccc3C)ccc2N2CC3CC(C2)c2cccc(=O)n2C3)cc1 (centres undefined)
-0.18,Cn1c(SCC(=O)NCc2ccco2)nc2c([nH]c3ccccc32)c1=O
-0.77,COc1cc2[nH]c(=S)n(Cc3ccco3)c(=O)c2cc1OC
-0.8,CCCOc1ccc(-c2nc3ccccc3c(=O)o2)cc1
-0.04,O=C(NCCC1=CCCCC1)c1ccc2c(c1)N(Cc1ccc(Cl)cc1)C(=O)CS2
-0.62,COc1ccccc1CNS(=O)(=O)c1ccc(F)c(C(=O)Nc2ccc(Cl)cc2C(F)(F)F)c1
-1.5,CCOC(=O)C1=C(C)N=C2SCCC(=O)N2C1C=Cc1ccccc1 (centres undefined)
0.24,CCCCOc1ccccc1NC1=NS(=O)(=O)c2ccccc21
-0.21,COc1ccc(CN2CCN(c3ncnc4sc5c(c34)CC(C)CC5)CC2)cc1 (centres undefined)
0.67,CC(C)COC(=O)c1ccc(NC(=O)C2C3C=CC(C3)C2C(=O)O)cc1 (centres undefined)
0.62,Cc1ccc(S(=O)(=O)N=C(Nc2ccc(O)c(C(=O)O)c2)c2ccccc2)cc1
-0.51,COC(=O)C1=C(C(=O)OC)SC(=C2C(=S)C(C)(C)N(C(=O)c3ccc(F)cc3)c3ccccc32)S1
-1.1,O=C(c1ccc(S(=O)(=O)N2CCOCC2)cc1)N1CCN=C1SCc1ccc(Cl)cc1
-0.08,O=C(Nc1c2c(nn1-c1ccc(Cl)cc1)CSC2)c1ccc([N+](=O)[O-])cc1
0.41,O=[N+]([O-])c1ccc(-c2nc(=S)c3c(n2CCO)CCCC3)cc1
1.4,CCOc1ccc2cc(-c3nc4ccccc4s3)c(=O)oc2c1
0.36,O=C(NCCN1CCOCC1)c1cc(Sc2cccc(Cl)c2)nc2ccccc12
0.57,COc1ccccc1-c1cc(CC(C)C)nc(C#N)c1N
0.89,Cc1ccc(C(=O)Nc2ccc3nn(-c4cccc(Cl)c4)nc3c2)cc1[N+](=O)[O-]
-0.13,COC(=O)C1=C(C)N(C)C(C)=C(C(=O)OC)C1c1ccc(Cl)c([N+](=O)[O-])c1
-0.83,COC(=O)c1cc2c(=O)n3cc(C)ccc3nc2n(Cc2ccco2)c1=N
-1.4,O=C(NCc1ccccc1)c1ccccc1-c1nc2ccccc2[nH]1
-1.2,CN(CC(=O)NC1CCCCCC1)S(=O)(=O)c1ccc2c(c1)CCC(=O)N2
-0.76,O=C(NC1CCCCC1)C(c1ccccc1)N1CCCC1 (centres undefined)

The list continues.
Measles inh,SMILES
0.44,CCOc1cc2c(cc1OCC)C(c1cc(OC)c(O)c(OC)c1)NCC2 (centres undefined)
-1.5,O=C(NC1CCCCC1)c1cc(-c2ccc3c(c2)OCO3)on1
1.9,O=C1CC(Cc2ccc(Cl)cc2)C(=O)N1c1nccs1 (centres undefined)
-0.85,COc1cccc(-n2nc(C(=O)N3CCN(c4ccccc4F)CC3)c3ccccc3c2=O)c1
0.62,CC(NC(=O)CCCC1=NS(=O)(=O)c2ccccc2N1)c1ccccc1 (centres undefined)
0.79,O=C(CSc1nnc(-c2ccccc2)c(-c2ccccc2)n1)c1ccccc1
0.29,O=C(c1c[nH]c2ccc(S(=O)(=O)N3CCc4ccccc43)cc2c1=O)N(Cc1ccco1)CC1CCCO1 (centres undefined)
1.2,Fc1ccc(C2CC(c3ccc(Cl)cc3)=Nc3nc(-c4ccccc4)cn32)cc1 (centres undefined)
-0.87,O=C(NC1CCCCCC1)C1CCC(Cn2c(=O)[nH]c3ccccc3c2=O)CC1 (centres undefined)
0.67,O=C(NCCN1CCN(c2ccccc2)CC1)c1cccn2c(=O)c3ccc(Cl)cc3nc12
0.43,O=C1CS(=O)(=O)C(c2cccc(Br)c2)N1c1ccc(F)cc1 (centres undefined)
3.7,CCOC(=O)c1c(C)nc2c(C#N)c(C)n(-c3ccccc3)c2c1-c1ccc(Br)cc1
-0.31,CC(=O)c1ccc(N2CCN(C(=O)c3ccc(Cn4c(=S)[nH]c5ccc(Br)cc5c4=O)cc3)CC2)cc1
0.38,CCCCNC(=O)c1cc(Nc2ccc(C)c(C)c2)nc2ccccc12
-0.13,O=C(c1ccc2c(=O)n(CC3CCCO3)c(=S)[nH]c2c1)N1CCc2ccccc21 (centres undefined)
3.4,COc1cc(C2CC(=O)C3=C(C2)Nc2ccccc2NC3c2ccccc2Cl)cc(OC)c1OC (centres undefined)
0.45,COc1ccc(NC(=O)c2ccccc2NC(=O)c2ccco2)cc1
1.3,COc1ccc(Cl)cc1Nc1nc(-c2ccccn2)cs1
0.51,CC1=C(C(=O)Nc2ccccc2C)C(c2ccc(Cl)cc2)C2=C(CCCC2=O)N1 (centres undefined)
-0.76,COc1ccc(/C(O)=C2\C(=O)C(=O)N(CCCn3ccnc3)C2c2ccc(F)cc2)cc1 (centres undefined)

Taken from the results shown, 5 compounds:
Measles inh,SMILES
-0.13,O=C(c1ccc2c(=O)n(CC3CCCO3)c(=S)[nH]c2c1)N1CCc2ccccc21 (centres undefined)
3.4,COc1cc(C2CC(=O)C3=C(C2)Nc2ccccc2NC3c2ccccc2Cl)cc(OC)c1OC (centres undefined)
0.45,COc1ccc(NC(=O)c2ccccc2NC(=O)c2ccco2)cc1
1.3,COc1ccc(Cl)cc1Nc1nc(-c2ccccn2)cs1
0.51,CC1=C(C(=O)Nc2ccccc2C)C(c2ccc(Cl)cc2)C2=C(CCCC2=O)N1 (centres undefined)

An excerpt (hit frequency here may not be typical).
